Bioassay records: PubChem, several laboratories
RanGTP-Imp inh: disruptors of Ran-importin-beta complex formation – biochemical, FRET, CFP-Ran, YFP-importin-beta, homogeneous, primary screen | cell-free CFP-Ran/YFP-importin-beta FRET ratio | inhibition, % (test concentration not listed) | 300,000 compounds, 1.1% hits;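 active = most replicates above 15%; inconclusive = exactly half above 15%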;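 also: 0% = DMSO wells and 100% = Ran loaded with GDP instead of GTP; wells of about 40 µL received 100 nL stock; the first replicate is given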
LANA-H2B inh: blocks KSHV LANA binding to histone H2A/H2B | Q9QR71 | cell-free LANA-H2A/H2B peptide, fluorescence polarization | inhibition, % (concentration not given with the values) | 320,000 compounds, 0.6% hits | AID 2629; in the data active = inhibition mostly above about 10%, no sharp cut-off; inactive = mostly below about 6.7%;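 also: stock transfer was 7.5 nL into about 10 µL; 0% = median of vehicle wells and 100% = median of positive control wells; one replicate is shown; the record names a cut of 25% in any replicate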
Target sequence (Q9QR71 whole entry, looked up): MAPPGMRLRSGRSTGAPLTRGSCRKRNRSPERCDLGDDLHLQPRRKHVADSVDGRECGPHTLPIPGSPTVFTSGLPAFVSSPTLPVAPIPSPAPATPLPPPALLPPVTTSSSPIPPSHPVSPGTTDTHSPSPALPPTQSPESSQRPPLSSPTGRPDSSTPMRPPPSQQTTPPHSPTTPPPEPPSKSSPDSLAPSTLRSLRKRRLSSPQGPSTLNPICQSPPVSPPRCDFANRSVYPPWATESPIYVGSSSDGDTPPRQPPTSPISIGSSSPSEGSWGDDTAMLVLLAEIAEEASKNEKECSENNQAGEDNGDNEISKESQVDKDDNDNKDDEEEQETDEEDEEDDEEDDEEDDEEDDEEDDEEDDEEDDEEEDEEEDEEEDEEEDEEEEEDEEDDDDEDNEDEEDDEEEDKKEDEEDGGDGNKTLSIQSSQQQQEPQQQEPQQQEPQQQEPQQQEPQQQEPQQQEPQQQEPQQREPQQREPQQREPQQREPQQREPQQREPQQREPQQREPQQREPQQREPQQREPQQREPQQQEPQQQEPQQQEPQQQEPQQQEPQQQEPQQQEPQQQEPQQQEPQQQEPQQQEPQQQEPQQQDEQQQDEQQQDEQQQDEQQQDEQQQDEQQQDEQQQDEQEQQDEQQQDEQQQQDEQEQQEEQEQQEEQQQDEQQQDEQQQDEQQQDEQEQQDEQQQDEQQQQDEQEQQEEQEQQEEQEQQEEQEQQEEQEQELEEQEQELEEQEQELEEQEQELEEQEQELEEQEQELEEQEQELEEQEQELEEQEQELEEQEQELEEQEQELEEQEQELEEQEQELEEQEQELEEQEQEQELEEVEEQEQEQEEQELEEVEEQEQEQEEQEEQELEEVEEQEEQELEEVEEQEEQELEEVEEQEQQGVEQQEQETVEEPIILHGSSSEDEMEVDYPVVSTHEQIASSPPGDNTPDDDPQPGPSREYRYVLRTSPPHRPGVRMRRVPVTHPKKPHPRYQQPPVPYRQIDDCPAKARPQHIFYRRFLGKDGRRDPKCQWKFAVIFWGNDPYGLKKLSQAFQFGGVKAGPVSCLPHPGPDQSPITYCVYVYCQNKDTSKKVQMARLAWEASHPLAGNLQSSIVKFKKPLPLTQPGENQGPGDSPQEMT
Vif TR-FRET: inhibitors of Vif binding to APOBEC3G peptide, primary screen, biochemical, TR-FRET, GST-Vif 1-94, biotin-A3G peptide, dose response retest (AID 1117319). inhibition, %, or IC50 in µM where a hit was titrated. TR-FRET GST-Vif / biotin-A3G peptide binding; higher % means a stronger effect; test concentration not given here; strong numbers were not always called active. 260,000 compounds, 0.57% hits;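 active = above the screen mean plus three standard deviations and confirmed in dose response; inconclusive = results disagree or hit not tested in dose response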;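 also: Vif residues 1-94 fused to GST binding biotinylated APOBEC3G peptide 110-148; 0% = full assay without inhibitor and 100% = GST in place of GST-Vif; retest series ran down from 100 µM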
Calb FLC: affects C. albicans growth with fluconazole | C. albicans CaCi-2 (fluconazole-resistant clinical isolate) + fluconazole, Alamar Blue growth, 48 h | growth inhibition, % (no concentration beside the values) | 300,000 compounds, 0.57% hits | AID 1979;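 active = most replicates above 75%; inconclusive = exactly half above 75%; inactive = most below 75%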;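 also: all wells also contain fluconazole at 8 µg/ml as a sub-toxic cotreatment; 0% = median of DMSO wells and 100% = median of geldanamycin control wells; wells of about 8 µL received 7.5 nL stock; the first replicate is given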
Beta cell apopt: beta cell apoptosis inhibition; INS-1E cytokine-induced death, ATP luminescence, 48 h; percent of positive-control rescue, neutral wells zero; protection from apoptosis, % (concentration not given with the values); 300,000 compounds, 0.8% hits; AID 435005;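 active = all replicates at 75% or more, or half of them and the mean; inconclusive = half reach 75% but not the mean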;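 also: 0% = cytokine-treated negative control wells and 100% = positive control rescue; higher means more ATP so stronger rescue from cytokine killing; wells of about 40 µL received 100 nL stock; the first replicate is given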
MLL AF4-AF9 inh: inhibitors of human MLL-AF4/AF9 interaction. P42568. AlphaScreen, biotin-AF4 peptide binding to FLAG-AF9. inhibition, % at 10 µM. 350,000 compounds, 0.47% hits;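 active = every replicate reaching a set inhibition limit, whatever the replicate mean, cut at about 25% in these data; inconclusive = mean inhibition reaches that limit but some replicates miss it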;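 also: 0% = plate neutral control median and 100% = total signal loss; the record names both 10 and 1 µM as test concentration; the first replicate is given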
T cruzi repl: blocks replication of Trypanosoma cruzi | T. cruzi beta-gal in NIH3T3, luminescence, 90 h | inhibition, % (no concentration beside the values) | 300,000 compounds, 1.4% hits | AID 1885;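 active = mean inhibition across valid replicates above about 55%, limit read from the data; inconclusive = mean below that limit but half or more replicates reach it; inactive = mean below it, under half of replicates reach it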;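 also: signal also drops with host cell toxicity which is not excluded here; 0% = plate median of DMSO wells and 100% = zero luminescence signal; higher percent means less beta-gal luminescence so fewer parasites; stock transfer was 50 nL into about 50 µL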
Bfl-1 A1 inh: inhibitors of the anti-apoptotic protein A1, read as caspase activation | MEF A1-2A-BIM cells, Caspase-Glo 3/7 luminescence, 3 h; percent of clofoctol response, vehicle zero | caspase activation, % (test concentration not listed) | 330,000 compounds, 0.066% hits;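 active = over half of replicate activation scores above 10%, or exactly half above 10 with the replicate mean above 10; inconclusive = replicate mean below 10 yet half the replicates above 10; inactive = over half of replicates below 10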;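 also: wells of about 30 µL received 50 nL stock; many hits fall short of the cut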
* hit, by the source's call; u = inconclusive; x = no result given.

structure	RanGTP-Imp inh	LANA-H2B inh	Vif TR-FRET	Calb FLC	Beta cell apopt	MLL AF4-AF9 inh	T cruzi repl	Bfl-1 A1 inh
O=C(Nc1ccccc1C(F)(F)F)c1ccc2nccnc2c1	5.3	3.0	-14%	1	-5	-0.3	6	0.2
Cc1ccc(/C=C/C(=O)O)cc1S(=O)(=O)NC1CCS(=O)(=O)C1 (stereo not drawn)	-2.9	1.5	-2%	-5	1	-21	-1	1.0
Cc1csc(Nc2ccccc2)[n+]1-c1ccccc1	0.2	4.5	13%	40	4	28*	-4	1.3
COc1ccc(N2CCN(C(=O)CCc3nnc4ccc(N5CCOCC5)nn34)CC2)cc1	5.1	1.7	9%	-27	-2	2.0	-8	1.4
O=C(Cn1cnc2c(oc3ccccc32)c1=O)N1CCCC1	2.7	2.4	6%	1	-5	-0.2	4	0.4
Cc1ccc(Cl)cc1NC(=O)CCNC(=O)N1CC(=O)Nc2ccccc21	3.2	0.2	0%	2	-6	-0.2	1	0.8
COc1cccc(N2CC(C(=O)Nc3nnc(SCC(=O)NCc4ccco4)s3)CC2=O)c1 (stereo not drawn)	2.6	-1.0	14%	-1	-3	-2.1	-3	-1.0
Cc1nc2ccccc2c(=O)n1NC(=O)/C=C/c1ccccc1	1.5	-1.4	x	-18	1	-0.9	10	1.8
COCCn1c(CN2CCN(C(c3ccccc3)c3ccccc3)CC2)nc2c1c(=O)n(C)c(=O)n2C	3.2	x	0%	-1	x	0.6	7	x
Cc1cc(NC(=O)CSc2nnnn2-c2ccc(F)cc2)no1	0.5	2.7	x	4	-1	0.3	-7	0.3
CCOc1cc(N2CCOCC2)c(OCC)cc1NC(=O)CSc1ncccn1	0.7	-2.2	-9%	30	x	0.6	-1	0.9
Fc1ccc(CNc2cnccn2)cc1	-4.0	3.0	4%	-18	-1	x	-16	0.5
O=C(NCc1ccncc1)NC12CC3CC(CC(C3)C1)C2	-0.1	2.3	-3%	-15	0	-0.4	-16	-1.1
CC(=O)c1cccc(NC(=O)c2ccc(C)o2)c1	-4.3	-1.3	-3%	-3	-1	0.7	-2	1.7
C#CCOCCOCCOCCNc1nc(N2CCN(C(=O)C([C@@H](C)O)n3cc([C@@H](N)CCCCN)nn3)CC2)nc(N2CCN(C(=O)[C@H](CCCCN)n3cc([C@@H](N)[C@H](C)CC)nn3)CC2)n1 (stereo partly drawn)	x	-8.9	-2%	x	-6	59*	x	0.4
CCc1cc2c(=O)c(-c3nc(C)cs3)coc2cc1OC(C)C(=O)NCCO (stereo not drawn)	-0.1	-9.5	-14%	-5	2	2.0	-13	u
O=C(NCCCN1CCN(c2ccccc2)CC1)Nc1ccccc1C(F)(F)F	-2.7	-0.1	1%	-8	-5	x	9	-0.1
NC1=NC(=O)C(Cc2ccc(Br)cc2)S1 (stereo not drawn)	3.5	0.9	-3%	-1	x	-0.9	4	0.2
Cc1ccc(S(=O)(=O)/C(C#N)=C/c2c(N3CC(C)OC(C)C3)nc3c(C)cccn3c2=O)cc1 (stereo not drawn)	u	-0.2	-2%	10	-3	x	-6	-0.4
Cc1cc(NC(=O)c2ccccc2O)nc(C)n1	u	-0.8	0%	10	-6	-0.1	-7	-3.5
CC(=O)c1ccc(NC(=O)CSc2nc(=O)cc(N)n2-c2ccccc2)cc1	-0.7	1.2	u	-6	-6	-0.5	-9	-0.2
Cc1ccc(NC(=O)C2C3C=CC(O3)C2C(=O)O)cc1C (stereo not drawn)	3.4	-3.3	x	-3	3	-4.9	9	-0.7
CS(=O)(=O)N(CC(=O)Nc1ccccc1C(=O)N1CCCC1)c1ccccc1Br	-2.5	-9.1	-8%	15	-5	-1.9	6	-0.1
COc1ccccc1NC(=O)CSc1nc2n[nH]c(C)c2c(=N)n1-c1ccccc1Cl	5.0	0.2	3%	32	x	x	21	-0.4
CCCN1CNc2c(c(=O)[nH]c(=S)n2-c2ccc(Cl)cc2)C1	x	-3.5	-5%	-15	-2	0.0	x	0.8
Cc1cc(=O)oc2c1c(C(F)(F)F)nn2-c1ccccc1	-0.2	-2.2	-8%	-14	x	-1.5	x	2.4
CN(C(=O)COC(=O)c1ccccc1SCC(=O)NC1CCCCCCC1)C1CCS(=O)(=O)C1 (stereo not drawn)	-3.1	-2.1	-7%	7	-4	x	-10	0.2
CC(=O)N1CCCc2cc(S(=O)(=O)NC(C(=O)NC(C)c3ccccc3)C(C)C)ccc21 (stereo not drawn)	-2.9	-5.6	13%	-2	-8	x	1	-0.4
CC1=NN(C(=O)c2ccccc2Br)C(O)(c2ccc(Cl)cc2)C1 (stereo not drawn)	0.6	-2.8	x	-7	-10	1.9	0	2.2
CCC(C)N1C(=O)C2C(C(=O)Nc3cccc(OC)c3)C3C=CC2(O3)C1C(=O)NC1CCCCC1C (stereo not drawn)	x	-1.4	0%	x	3	x	x	0.5
CC(C)NC(=O)CN1C(=O)c2cccc3cccc1c23	0.0	0.6	x	0	0	-4.8	6	-1.2
Nc1nc(-c2cccs2)c(NC(=O)c2ccccc2)s1	-2.1	0.7	5%	11	0	1.5	-2	-0.8
COc1ccc(C(CNC(=O)Cc2cccs2)N(C)C)cc1 (stereo not drawn)	u	-5.4	9%	-3	-6	1.8	-10	1.1
CC(C)CN(C(=O)COC(=O)c1ccccc1SCC(=O)NC1CCCCCC1)C1CCS(=O)(=O)C1 (stereo not drawn)	-5.2	0.0	x	5	0	-4.8	-7	-0.8
c1ccc2[nH]c(Cn3nnc4ccccc43)nc2c1	0.1	0.9	x	1	1	-0.6	2	0.6
O=C(O)c1ccc(NC(=S)NC(=O)c2cccnc2)cc1	1.2	12	-6%	4	-5	-13	-16	-0.4
CC1(C)[C@H]2CC[C@]1(C)[C@@H](OC(=O)C[N+]1(C)CCOCC1)C2	3.8	-2.2	8%	3	-3	-5.5	14	1.8
NNC(=O)Cn1c(-c2ccccc2)cc(=O)n2ncnc12	-2.4	-1.9	-7%	-16	-4	x	-6	-0.4
O=C(Oc1ccc(-c2nc(-c3ccccn3)no2)cc1)c1ccccc1	1.3	6.2	1%	0	47	x	-4	-15
CNC(=O)c1sccc1SCc1ccc(Cl)cc1Cl	3.1	-1.5	u	-1	-4	x	7	-0.4
O=C(CSc1nc2ccccc2c(=O)n1CCCN1CCOCC1)N1CCN(c2ccccc2)CC1	-0.3	4.3	x	4	-5	4.8	14	-1.0
COc1ccccc1N1CCN(C(=O)Cc2ccc(Cl)cc2)CC1	u	1.7	x	-6	1	-0.1	-11	-0.8
O=C(/C=C/c1ccco1)NC(=S)Nc1ccc(O)c(-c2nc3ccccc3s2)c1	3.5	-4.0	x	-5	40	x	-13	-0.1
Cc1occc1C(=O)NCc1ccc(C(=O)O)o1	3.5	-4.2	19%	0	-1	x	3	0.5
O=C(CCc1ccccc1)NNC(=O)COc1ccccc1	1.0	3.6	-1%	7	-3	x	-6	1.2
O=C1CC(C(=O)Nc2cccc(F)c2)n2ncnc2N1 (stereo not drawn)	1.9	4.8	-3%	u	-6	-1.1	-2	-0.1
CCCOc1cccc(-c2cc(C(=O)N/N=C/c3cccnc3)c3ccccc3n2)c1	x	2.9	6%	37	5	-0.2	x	-2.1
CC(=O)NCc1ccc(-c2nc3ccccc3s2)cc1	-1.1	2.3	x	-1	5	-1.1	5	-0.5
CCCN1CCC(=O)N(CCSc2ccccc2)CC1	-0.9	1.7	x	-2	-7	-3.3	-2	0.4
CNC(C)C(=O)NC(C(=O)N1CCCC1C(=O)NC1CCCc2ccccc21)C(C)C (stereo not drawn)	x	0.8	x	x	52	4.6	x	3.0

Continued.
structure	RanGTP-Imp inh	LANA-H2B inh	Vif TR-FRET	Calb FLC	Beta cell apopt	MLL AF4-AF9 inh	T cruzi repl	Bfl-1 A1 inh
Cc1ccc(C(=O)COC(=O)C2CC3CCCC(C2)C3=O)cc1[N+](=O)[O-] (stereo not drawn)	3.4	4.2	x	-1	-2	-42	-12	-0.2
CCOCCCN(C(=O)Cn1nnc(-c2ccc(C)o2)n1)C(C(=O)NC1CCCC1)c1ccco1 (stereo not drawn)	0.2	2.3	x	-7	-4	0.8	6	-1.8
O=C1c2ccccc2C(Nc2cccnc2)N1Cc1ccc2c(c1)OCO2 (stereo not drawn)	-0.3	6.6	13%	-7	-4	13	11	-0.1
O=C(NCc1ccc2c(c1)OCO2)C1CC(=O)N(C2CCCC2)C1 (stereo not drawn)	-2.7	-2.4	4%	2	x	x	4	1.7
O=C(c1ccco1)N1CCN(c2ncnc3scc(-c4cccs4)c23)CC1	u	1.5	-13%	-31	0	5.4	-2	0.4
O=C(CSc1nccn1-c1cccc(F)c1)NC1CCCC1	x	-0.5	x	x	-6	0.0	x	0.5
CCOc1ccc(NC(=S)NCCCN2CCOCC2)cc1	1.4	4.0	1%	-1	0	0.9	3	1.5
CC(=O)c1c(C)[nH]c(C(=O)/C(C#N)=C/c2cccc(C)c2)c1C	1.8	1.6	x	5	-6	9.2	-5	1.3
Cc1ccc(S(=O)(=O)N2CCCCC2)cc1NS(=O)(=O)c1ccccc1F	x	-0.7	-10%	x	3	-7.3	x	1.2
Cc1ccc(-c2csc(N3CCN(c4cc5c(cc4Cl)nc(C(C)N)n5CCCO)CC3)n2)cc1 (stereo not drawn)	2.7	-2.2	x	0	-2	13	-14	-0.4
CCCNC(=O)N[C@@H](Cc1ccccc1)C(=O)OC	3.4	-4.7	2%	39	-7	x	-3	0.3
CCc1ccc(CNC(=O)c2ccc3c(c2)NC(=O)C(N2CCOCC2)S3)cc1 (stereo not drawn)	1.0	-4.7	x	2	-1	1.3	11	-0.4
COc1ccc(Nc2oc(COc3ccccc3OC)nc2C#N)cc1	1.2	-2.3	-1%	-3	6	0.1	3	0.3
Cc1ccc(S(=O)(=O)N2CCC(C(=O)OCC(=O)NC(C)c3ccc(F)cc3)CC2)cc1C (stereo not drawn)	x	2.5	-3%	x	4	-1.8	x	0.3

An unsorted share of the library; 4.3% or so of the library scored in one or more.
